High-throughput results deposited in PubChem BioAssay by several laboratories.
BJeLR lethal: BJeLR cell viability loss | BJeLR (HRASV12) viability, CellTiter-Glo ATP luminescence, 48 h; reference of the scale not given here | inhibition, % (test concentration not listed) | hit rate 0.17% among 300,000 | AID 1554;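 active = replicate mean above 50%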;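 note: 50 nL library stock added to about 25 µL; numbers are from one replicate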
Mtb hypoxia inh: Mtb hypoxia fluorescent reporter inhibition; AID 1159583; M. tuberculosis hypoxia-regulated fluorescent reporter, fluorescence; fluorescence inhibition, % (no concentration beside the values); hit rate 0.1% among 300,000;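 active = 35 to 45% if threefold the growth effect, above 45% if 1.5-fold the growth effect; inactive = the rest, general growth blockers included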;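 note: wells of about 50 µL received 100 nL stock; 0% = vehicle wells and 100% = reference inhibitor wells; whole bacteria with a GFP reporter of the hypoxia response; strong numbers were not always called active; many hits fall short of the cut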
Sa ugtP lethal: kills S. aureus RN4220 lacking UgtP; S. aureus RN4220 ugtP deletion, OD600 growth, 16 h; some inactives read as strong as hits; growth inhibition, % (no concentration beside the values); hit rate 0.54% among 330,000;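 active = z-score under -3 and OD600 up to 0.15 on both plates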;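 note: plate controls were untreated wells for no effect and antibiotic for full effect; wells of about 80 µL received 100 nL stock; the first replicate is given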
RN4220 kill: S. aureus RN4220 growth inhibition; OD600, 16 h; inhibition, % (test concentration not listed); hit rate 0.33% among 330,000;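 active = z-score of -3 or lower and OD600 up to 0.18 on both plates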;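 note: plate controls were untreated cells for no effect and reference antibiotic for full effect; stock transfer was 100 nL into about 80 µL; one replicate is shown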
Bead autofluor: compound fluorescence in toxin protease inhibitor counterscreen; compound autofluorescence counterscreen, microsphere flow cytometry; stronger effect = higher value; fluorescence intensity (concentration not given with the values); hit rate 3.1% among 360,000; AID 624483;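 active = at least 3 SD above the mean of all compounds, about 16000 in these data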;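 note: 100 nL of 1 mM stock went into each well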
PrP 5UTR inh: inhibition of PrP 5' UTR reporter expression; inhibition, % (concentration not given with the values); cell-based PrP 5' UTR mRNA reporter, plate reader; hit rate 0.35% among 340,000; AID 488862;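 active = every replicate at 50% or more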;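 note: 0 = median of the neutral control wells; tested in H4 reporter cells; numbers are from one replicate; inactives centre near -14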
Mtb hypoxia inh growth: recorded beside Mtb hypoxia inh, whose call it bears; growth inhibition, %; measured here: M. tuberculosis growth (absorbance);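 0% = vehicle and 100% = reference antibiotic; read after six days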
The depositor's hits bear a star; x = not tested or not shown.

smiles	RN4220 kill	Mtb hypoxia inh growth	PrP 5UTR inh	BJeLR lethal	Sa ugtP lethal	Bead autofluor	Mtb hypoxia inh
CCN(CC(=O)NC1CCS(=O)(=O)C1)Cc1nc2c(Br)cc(Br)cc2c(=O)[nH]1 (stereo not given)	3.7	6	-11	0	8	3173	15
Cc1ccc(NC(=O)CCSc2ccccc2)c(C)c1	1.5	-1	-2	6	1	3411	8
Cc1ccc(S(=O)(=O)N(C)c2ccc(C(=O)Nc3cccc(C)n3)cc2)cc1	6.5	2	-16	1	2	6242	3
Cc1cccc(NS(=O)(=O)c2cc3c(cc2C)n(C)c(=O)c(=O)n3C)c1	-0.6	x	-27	-16	0	6742	x
CCOC(=O)C1(CC2CCCCO2)CCN(Cc2nc(-c3cccs3)oc2C)CC1 (stereo not given)	4.4	2	-10	1	2	2627	-8
COc1ccc2ccc(O)c(CN(C)CC(=O)Nc3ccccc3C(F)(F)F)c2c1	1.6	-1	-3	12	-1	2976	2
COc1ccc(CSc2nc3ccccc3c(=O)[nH]2)cc1F	4.0	9	-93	3	4	4434	10
CCN(C(=O)CN1C(=O)/C(=C/c2ccc(F)cc2)SC1=S)C1CCS(=O)(=O)C1 (stereo not given)	1.0	3	-16	4	0	5642	17
COc1ccc(C(C)NC(=O)c2ccccc2)cc1 (stereo not given)	2.4	x	-12	-5	5	10242	x
O=C(CSc1nnc(CCc2nc3ccccc3[nH]2)n1-c1ccccc1)NCc1ccco1	0.0	6	-10	2	6	3108	7
CC(=O)Cc1nsc(NC(=O)c2ccc(-c3ccc(Cl)cc3Cl)o2)n1	33	7	-22	7	19	20376*	4
COc1ccc(NC(=O)CN(C)C(=O)CC2CCCC2)cc1	3.9	-5	-16	-6	5	4718	3
COc1cc(S(=O)(=O)NCc2ccc(F)cc2)ccc1-n1cnnn1	4.1	3	-20	-6	14	3992	9
C=CCN1C(=O)C2C(C(=O)NC3CCCC3)C3C=CC2(O3)C1C(=O)NC1CCCC1 (stereo not given)	1.2	-6	-2	-1	-2	5999	0
COc1ccc(OC)c(NC(=O)COc2coc(CN3CCc4ccccc43)cc2=O)c1	-3.1	1	-9	1	3	x	2
CCn1c(SCC(=O)NC2CCCCC2)nnc1-c1ccccc1F	-0.7	0	1	-2	1	4298	9
CCOC(=O)C1=C(O)/C(=C\c2cccc(OC)c2)N=C1C	-0.6	1	-16	-15	0	4270	17
NC(=O)CC12CC3CC(C1)CC(CC(N)=O)(C3)C2	4.0	4	x	4	3	9495	4
CCc1cc(=O)oc2cc(C)cc(OCC(=O)NCc3cccnc3)c12	-0.3	5	-5	-2	-9	5386	0
COc1ccc(-n2nc(C(=O)O)nc2-c2ccccc2)cc1	1.6	x	-8	-3	2	2794	x

Reformatted with two lines to a compound: entries from further up
Each structure is followed by: RN4220 kill | Mtb hypoxia inh growth | PrP 5UTR inh | BJeLR lethal | Sa ugtP lethal | Bead autofluor | Mtb hypoxia inh
> CCN(CC(=O)NC1CCS(=O)(=O)C1)Cc1nc2c(Br)cc(Br)cc2c(=O)[nH]1 (stereo not given)
  3.7 | 6 | -11 | 0 | 8 | 3173 | 15
> Cc1ccc(NC(=O)CCSc2ccccc2)c(C)c1
  1.5 | -1 | -2 | 6 | 1 | 3411 | 8

Single records, as listed above. Screens in order: RN4220 kill | Mtb hypoxia inh growth | PrP 5UTR inh | BJeLR lethal | Sa ugtP lethal | Bead autofluor | Mtb hypoxia inh
`CCn1c(SCC(=O)NC2CCCCC2)nnc1-c1ccccc1F` is listed as -0.7 | 0 | 1 | -2 | 1 | 4298 | 9
`COc1ccc(-n2nc(C(=O)O)nc2-c2ccccc2)cc1` is listed as 1.6 | x | -8 | -3 | 2 | 2794 | x
`Cc1ccc(S(=O)(=O)N(C)c2ccc(C(=O)Nc3cccc(C)n3)cc2)cc1` is listed as 6.5 | 2 | -16 | 1 | 2 | 6242 | 3

The list goes on:
smiles	RN4220 kill	Mtb hypoxia inh growth	PrP 5UTR inh	BJeLR lethal	Sa ugtP lethal	Bead autofluor	Mtb hypoxia inh
COc1ccc(OCCSc2nnnn2C2CCCCC2)cc1	8.3	x	-18	x	-1	4572	x
CCOC(=O)Cc1csc(NC(=O)CSc2nnc(-c3ccc(F)cc3)o2)n1	13	14	-32	-2	-26	7756	17
CC(C)NC(=S)NN=C1CCCc2ccccc21	-1.5	12	x	x	8	x	-1
Cc1cc(C)n2c(SCC(=O)N(CC(C)C)c3c(N)n(CC(C)C)c(=O)[nH]c3=O)nnc2n1	14	-2	-18	-3	7	4585	-6
CC(C)CCNC(=O)NC(=O)CSc1nnc(-c2ccccc2F)n1N	2.8	1	-20	-11	11	9401	-1
CCOC(=O)Cc1cnc(NC(=O)CSc2nc(N)cc(=O)[nH]2)s1	4.1	2	-10	-5	8	3585	2
Cc1cccc(N(CC(=O)NC(C)(C)C)C(=O)CNC(=O)c2cccs2)c1C	4.0	-1	-15	-7	3	5143	10
COc1ccc(-c2[nH]ncc2C=NNC(=O)c2ccc(Br)o2)cc1OC	-1.0	2	x	x	8	x	9
O=C(Cn1c(=O)n(CC2CCCO2)c(=O)c2ccccc21)N1CCN(c2ccccc2)CC1 (stereo not given)	6.6	x	4	-1	9	4248	x
O=C(Nc1ccc(C(F)(F)F)cc1)c1ccc2ncsc2c1	-3.4	0	-25	4	-9	3299	1
Cc1cc(C)cc(C(=O)O/N=C(\N)c2ccc(Br)cc2)c1	-2.1	15	-29	4	3	20148*	5
O=C(Cc1ccccc1)Nc1ccc(NC(=O)c2cccnc2)cc1	2.3	4	-10	2	7	3953	1
S=C1SCN(Cc2ccccn2)CN1Cc1ccco1	5.2	11	-3	0	23	16488*	11
CCOC(=O)Cn1c(C)cc(=O)c2ccccc21	1.2	x	-5	-3	-1	4512	x
O=C(COc1ccccc1[N+](=O)[O-])Nc1ccc(Br)cc1	-5.8	6	-47	x	-2	5038	5
O=C(O)c1cn(-c2ccccc2)nc1-c1ccc(Cl)cc1	0.3	1	-20	3	-26	17250*	-7
C=CCCN([C@@H](C)C(=O)OC)S(=O)(=O)c1ccccc1Br	x	x	15	5	x	2892	x
CC(C)CC(c1nnnn1Cc1ccc(F)cc1)N1CCC(C(N)=O)CC1 (stereo not given)	4.8	1	-24	5	1	2692	-2
CCN(Cc1cc(=O)n2ccsc2n1)Cc1nc2ccccc2c(=O)[nH]1	1.8	3	-31	5	6	3133	-1
CC(C)C(=O)N(Cc1ccccc1)c1ccccn1	5.7	6	-24	-2	1	9295	10

smiles	RN4220 kill	Mtb hypoxia inh growth	PrP 5UTR inh	BJeLR lethal	Sa ugtP lethal	Bead autofluor	Mtb hypoxia inh
O=C(CCc1nnc2n(Cc3ccc(Cl)cc3)c(=O)c3ccccc3n12)NCCN1CCCC1	-3.0	8	0	6	3	6104	13
CNC(=O)COC(=O)/C=C/c1ccc(F)cc1	1.1	-4	-9	-18	-2	4255	9
CCCCC1CC1C(=O)Nc1ccc(OC)c(OC)c1 (stereo not given)	4.5	1	1	-10	20	16567*	10
C=CCN(c1cccc(C(F)(F)F)c1)S(=O)(=O)c1cccc(C(=O)OCC(=O)Nc2ccccc2)c1	-2.7	-2	-19	15	2	8162	7
O=C1CC(c2ccccc2)CN1C(=O)c1ccccc1 (stereo not given)	-0.8	x	10	-7	-2	4779	x
Cc1cc(OC(=O)c2cc(Cl)nc3ccccc23)ccc1Cl	0.5	8	1	-3	-5	10058	5
CC(C)CCNC(=O)c1ccc(-n2cnc3cccnc32)cc1	-5.0	1	-19	2	11	3776	3
CCOC(=O)Nc1c2ccccc2nc2ccccc12	-1.7	-4	-19	0	4	4825	11
S=c1[nH]nc(-c2cccs2)n1/N=C/c1cccs1	x	x	2	5	x	3098	x
Cc1ccc(NS(=O)(=O)c2ccc3c(c2)NC(=O)CO3)cc1C	4.3	5	3	-3	0	5236	4
COc1ccc(/C=C/C(=O)O)cc1S(=O)(=O)N1CCC(C)CC1	3.5	-6	-3	6	1	5968	4
O=[N+]([O-])c1cccc(CSc2nc3ccccc3[nH]2)c1	6.7	4	-42	-2	-2	2105	6
COc1ccc(-c2nc3scc(-c4ccccc4)n3n2)cc1	0.3	4	-43	-2	-9	3838	1
COc1ccc(C(=O)c2nc3ccccc3n2C(C)C)cc1OC	-2.7	-5	-14	-4	4	2859	1
Cc1c(N(C)S(=O)(=O)c2ccc(Cl)c(C(=O)N3CCC(C(N)=O)CC3)c2)c(=O)n(-c2ccccc2)n1C	4.0	5	9	2	6	5277	-8
O=C(COc1ccccc1Cl)NC(=O)NC1CCCC1	-0.6	-7	-41	x	4	4489	-1
CCOc1ccc(NS(=O)(=O)c2ccc(NC(=O)c3cccnc3)c(OC)c2)cc1	8.4	3	-6	4	1	4502	11
CN(CC1CCCN(CCc2ccccc2F)C1)C(=O)c1ccoc1 (stereo not given)	0.2	2	-14	-2	6	4006	7
CCOC(=O)N1c2ccccc2Sc2ccccc21	-8.9	0	-10	-5	9	2952	-6
CCN(C(=O)/C=C/c1ccccc1)C1CCCCC1	4.9	7	-29	-6	11	4220	12

smiles	RN4220 kill	Mtb hypoxia inh growth	PrP 5UTR inh	BJeLR lethal	Sa ugtP lethal	Bead autofluor	Mtb hypoxia inh
CCOC(=O)Cc1csc(NC(=O)COc2ccc(C)c(C)c2)n1	8.8	-9	1	11	7	3831	-6
Cc1ccc2c(CSc3nncn3C)cc(=O)oc2c1C	4.5	-2	-11	19	4	3375	11
O=C(Cn1nc(-c2cccc(Cl)c2)ccc1=O)Nc1cccnc1	-2.0	4	-8	-1	8	23773*	8
O=C(Nc1nnc(Cc2ccc(Cl)cc2)s1)c1cccs1	4.1	9	-34	-9	1	10164	5
Cc1cccc(C)c1OCC(=O)OCC(=O)Nc1ccc(Cl)cn1	5.8	-5	-17	x	4	2848	-8
Cc1cc(SCC(=O)N(C)CC(=O)Nc2ccc(F)cc2)nc2ccccc12	8.3	-10	0	1	5	2319	14
O=C(CN(c1ccc2c(c1)OCCO2)S(=O)(=O)c1ccccc1)NCC1CCCO1 (stereo not given)	1.3	1	-9	-5	-1	3405	9
COC(=O)c1sc(S(=O)(=O)NC(C)C(=O)O)c(C(=O)OC)c1C (stereo not given)	1.4	-14	-24	1	0	4000	-15
COC(=O)c1ccc(-c2n[nH]c(=O)c3ccccc23)cc1	3.7	-4	-9	0	1	19671*	1
COc1ccc(C(=O)N2CCCC(Nc3ccc(F)cc3)C2)cc1F (stereo not given)	5.5	5	-8	6	9	4628	12
O=C(NC1CCCCC1)C(c1ccncc1)N(C(=O)c1csnn1)c1ccccc1F (stereo not given)	2.0	4	-11	-3	-2	3858	18
COc1ccc(F)cc1Cn1nc(C(=O)O)c2ccccc2c1=O	3.6	1	-21	-7	1	2918	5
CCOC(=O)c1c(C)[nH]c(C(=O)COC(=O)c2cnccn2)c1C	5.9	0	-1	x	2	3944	-6
Cc1cccc(COc2ccccc2C(=O)N(C)CC(=O)Nc2cccc(F)c2)c1	6.3	4	-3	x	-4	3679	3
Cc1ccc(S(=O)(=O)CC(=O)c2ccc(C(C)(C)C)cc2)cc1	9.3	6	-11	5	6	2404	8
CCOC(=O)C1=C(CN2CCC(C)CC2)NC(=O)NC1c1ccc(Cl)cc1 (stereo not given)	3.1	14	-4	-3	-4	8871	10
Cc1ccc(NC(=O)COc2ccccc2)c(NC(=O)c2ccco2)c1	2.2	2	-10	0	1	5819	7
O=C(Nc1ccc(Cc2ccncc2)cc1)c1cccc([N+](=O)[O-])c1	-0.7	-2	-25	10	1	2678	2
COc1cc(C=NNC(=O)CCn2nnc3ccccc32)ccc1O	2.4	9	x	x	-4	x	2
CCCn1c2ccccc2c2nnc(SCC(=O)Nc3nnc(CC(=O)OCC)s3)nc21	0.0	x	-5	8	-1	4530	x

smiles	RN4220 kill	Mtb hypoxia inh growth	PrP 5UTR inh	BJeLR lethal	Sa ugtP lethal	Bead autofluor	Mtb hypoxia inh
COc1ccccc1NC(=S)NCCc1c[nH]c2ccccc12	-2.1	x	-2	-1	-6	2807	x
CCCNC(=O)C(=O)N/N=C/c1ccc(OCc2ccccc2)cc1	x	x	-11	-8	x	2051	x
Cc1ccc(NC(=O)CCC(=O)OCC(=O)c2ccc(-c3ccccc3)cc2)cc1	3.4	-2	x	4	-6	10605	4
COCCNC(=O)C(c1ccc(OC)cc1)N(CCOC)C(=O)CCC(=O)Nc1nccs1 (stereo not given)	2.6	3	-6	-1	8	3491	5
CC1=C(Sc2nc3ccccc3[nH]2)C(=O)NC(C)(C)C1	6.1	14	-10	-8	4	4437	10
O=C(Cc1cccs1)Nc1ccccc1-c1nc2ccccc2[nH]1	-7.6	10	x	4	-1	x	14
Nc1cccc(-c2nc3ccccc3[nH]2)c1	3.9	5	-64	-4	2	9440	3
